Screening results: PubChem BioAssay, National Center for Advancing Translational Sciences (NCATS)
TRPML1 blocker – qHTS for Inhibitors of the Human Mucolipin Transient Receptor Potential 1 (TRPML1). activity change, negative = inhibition, % (concentration not given with the values). TRPML1-inducible cells, Ca2+ dye fluorescence, FDSS; stronger effect = lower value; inhibition of EC80 agonist-evoked calcium signal. 390,000 tested, 0.02% active. AID 624415, 2012. Mucolipin-1 (Homo sapiens), Q9GZU1; in the data active means activity change below about -50%; inconclusive means about -30% to -50%; inactive means above about -30%;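 also: stimulus is agonist 54-4 at its EC80 concentration; % is scaled to controls: 0 for no effect and ±100 for the full control effect; compound concentration not given in the record; the text of the record puts the active cut at -80%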
Target sequence (Q9GZU1 whole entry, looked up): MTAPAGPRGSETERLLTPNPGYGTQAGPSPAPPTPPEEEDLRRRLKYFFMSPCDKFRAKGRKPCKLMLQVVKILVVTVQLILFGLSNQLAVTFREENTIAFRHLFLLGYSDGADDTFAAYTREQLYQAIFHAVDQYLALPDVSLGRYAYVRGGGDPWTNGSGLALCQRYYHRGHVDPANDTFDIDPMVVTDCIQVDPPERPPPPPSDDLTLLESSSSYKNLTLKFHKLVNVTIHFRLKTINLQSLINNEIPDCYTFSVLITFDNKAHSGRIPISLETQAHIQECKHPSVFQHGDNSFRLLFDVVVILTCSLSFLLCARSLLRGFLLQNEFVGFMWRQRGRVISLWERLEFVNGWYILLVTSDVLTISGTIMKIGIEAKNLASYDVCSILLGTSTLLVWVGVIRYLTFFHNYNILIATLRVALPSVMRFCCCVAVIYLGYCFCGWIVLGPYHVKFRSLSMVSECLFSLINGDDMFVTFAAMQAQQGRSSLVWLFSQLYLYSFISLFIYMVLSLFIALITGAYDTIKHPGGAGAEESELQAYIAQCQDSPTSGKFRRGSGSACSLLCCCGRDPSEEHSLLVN
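TRPML1-DL cells, Tet-induced overnight (~16 h, 37 °C) at 1,500 cells/well, were loaded with Ca8 no-wash dye plus quencher for 45-90 min at room temperature. Compounds were pinned during FDSS kinetic reading; agonist 54-4 at EC80 (4 uM final) then added.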
Menin-MLL FL inh – qHTS Assay for Inhibitors Targeting the Menin-MLL Interaction in MLL Related Leukemias: Competition With Fluorescein Labeled MLL-derived Peptide; Fluorescence polarization, fluorescein-MLL peptide displacement from menin; FP activity change, % at 61.4 µM; 290,000 tested, under 10 active; inconclusive = falling polarisation curve, or a change in total fluorescence; inactive = total fluorescence flat and polarisation flat or rising; no compound was filed as active; the % refers to the polarisation; negative = inhibition;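 also: % of control where 0% means no effect; inhibitors lower the polarisation; unlabelled MLL peptide was the positive control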
gsp ag – qHTS for Agonist of gsp, the Etiologic Mutation Responsible for Fibrous Dysplasia/McCune-Albright Syndrome: qHTS. gsp mutant cells, cAMP HTRF, 30 min; control for the full effect not named in the record. Potency, µM (series often up to 76.9 µM), for inactives: at the top dose activation (cAMP increase), usual class: activators. 340,000 tested, 0.13% active. AID 624287, 2012; active = well fitted activation curve with a large enough effect; inconclusive = small, poorly fitted or top-dose-only effect, or another doubt; inactive = no such curve, though single readings can be large or run the other way; cell line not stated here;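 also: phosphodiesterase inhibitor Ro 20-1724 added with compounds to block cAMP breakdown; potency is read from the fitted curve at half-maximal effect; nearly all actives have a fitted effect of over 60% in size; about a fifth of the inactives were tested at one dose only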
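Cells stably selected in G418 were plated at 2000/well, grown 16-24 hr, then given compounds in DMSO with the PDE inhibitor […] (300 uM solution added) for 30 min at 37C; cAMP was read by HTRF.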
ClpP mod – qHTS Assay for Activators of ClpP; ATP-dependent Clp protease proteolytic subunit (Bacillus subtilis (strain 168)), P80244; purified B. subtilis ClpP, FRET peptide cleavage, 20 min; Potency, µM (series often up to 57.5 µM), for the others: top-dose activity change, negative = active; 340,000 tested, 1.9% active; AID 651965, 2013; active = well fitted falling curve with a large enough effect; inconclusive = small, poorly fitted or top-dose-only effect; inactive = no such curve, though single readings can be large or run the other way; also: potency is read from the fitted curve at half-maximal effect; the source files actives as falling curves though it sought activators and does not explain the sign; nearly all actives have a fitted effect of over 65% in size; many hits overshoot -100%
Target sequence (P80244 whole entry, looked up): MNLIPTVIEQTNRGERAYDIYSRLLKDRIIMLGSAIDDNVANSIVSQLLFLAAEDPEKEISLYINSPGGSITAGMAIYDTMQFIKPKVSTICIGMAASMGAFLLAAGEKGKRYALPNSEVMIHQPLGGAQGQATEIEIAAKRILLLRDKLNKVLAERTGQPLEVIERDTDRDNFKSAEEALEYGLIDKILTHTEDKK
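Buffer: 100 mM Tris/HCl pH8, 100 mM KCl, 0.05% low protease BSA, 2.5% glycerol, 0.01% Tween-20. ClpP 10 microg/mL final; 20 min RT; delta FRET normalized to ADEP and DMSO controls.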
gsp antag – qHTS for Antagonists of gsp, the Etiologic Mutation Responsible for Fibrous Dysplasia/McCune-Albright Syndrome: qHTS; gsp-mutant cells, cAMP HTRF, 30 min; control for the full effect not named in the record; Potency, µM (titrated, usually from 76.9 µM), for inactives: at the highest dose activity change, negative = inhibition, usual class: inhibitors; 340,000 tested, 0.4% active; active = falling curve of any shape with a large fitted effect; inconclusive = falling curve, mostly with a smaller effect; inactive = flat or rising curve; cell line not stated here;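 also: intracellular cAMP measured with PDE inhibitor Ro 20-1724 present during compound exposure; potency is read from the fitted curve at half-maximal effect; % is scaled to controls: 0 for no effect and ±100 for the full control effect; nearly all actives have a fitted effect of over 65% in size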
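Cells, 2000/well, grown 16–24 h in DMEM 10% FBS with 0.5 mg/ml G418, then compounds plus […] (300 uM addition stock), 30 min at 37C. cAMP read by HTRF (cAMP-d2 and anti-cAMP antibody-K in lysis buffer) after 30 min RT.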
TRPML1 agonist – qHTS for Agonists of the Human Mucolipin Transient Receptor Potential 1 (TRPML1). activation, % (no concentration beside the values). 410,000 tested, 0.12% active. TRPML1-expressing cells, Ca2+ dye fluorescence, FDSS; host cell line not named in the record; reference of the full effect not given here; in the data active = activation above about 50%; inconclusive = about 30% to 50%; inactive = below about 30%; also: 0% is about no effect; the text of the record puts the active cut at 80%
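Tet-induced TRPML1-DL cells, 1,500 per well, cultured overnight, were loaded with a no-wash Ca2+ dye for 45–90 min. Calcium fluorescence was recorded on the FDSS for 110 s after compound addition, before the EC80 agonist (4 uM 54-4) was added.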
An asterisk follows results filed as active; ? = inconclusive; . = no result given; & = joins results of further samples; [ ] = another dose, or the depositor's remark.

smiles | TRPML1 agonist | TRPML1 blocker | ClpP mod | gsp ag | Menin-MLL FL inh | gsp antag
Cc1nn(-c2ccccc2)c(C)c1C(=O)OCC(=O)NC(=O)NC1CCCC1 | 1.9 | -4 | -5.2% | -35%[inhibitor] | 3.3 | -9%
Cc1ccc(NC(=O)C2(NC(=O)c3cccc(N4C(=O)CSC4c4ccccc4)c3)CCCCC2)cc1 (configuration not stated) | 6.6 | -5 | -0.8% | -28% | 0.3 | -7%
COc1ccc(NC(=O)c2ccc3c(c2)c(C)c(C)n3Cc2ccc(F)cc2)c(OC)c1 | 0.2 | -14 | 22µM* | . | . | .
CC(=O)c1c(C)[nH]c(C(=O)OCC(=O)Nc2cccnc2Cl)c1C | -0.4 | 15 | . | 33% | . | -9%
N#Cc1ccc(OCC(=O)NN2Cc3ccccc3C2=N)cc1 | 0.6 | 14 | . | -1%[15.4 µM] | -2.8 | 12%
Cc1[nH]c2ccccc2c1C(c1ccncc1)N1CCC(C)CC1 (configuration not stated) | 0.9 | 5 | -28% | 7%[15.4 µM] | -2.0 | 2%
O=C(Nc1ccc(N2CCN(C(=O)c3ccco3)CC2)cc1)c1ccc(Br)cc1 | -0.8 | 6 | 1.0% | ? | -0.9 | 0%
O=C(N/N=C/c1ccccc1[N+](=O)[O-])c1cccs1 | -0.4 | 17 | . | -21% | 3.9 | -2%
COc1ccc([N+](=O)[O-])cc1NC(=O)CC1SC(=Nc2cccc(C)c2C)N(/N=C/c2cccc(OC)c2OC)C1=O (configuration not stated) | -0.3&-0.1 | 2&-10 | 1.2% | -3%&24% | -3.2 | -8%&-4%
COc1ccc(C(=O)OCc2csc(C)n2)c(O)c1 | -1.4 | -4 | -1.3% | -14%[15.4 µM] | 2.6 | 5%
O=C(Nc1ccc2oc(-c3ccncc3)nc2c1)c1ccc2c(c1)OCCO2 | -0.2 | -12 | . | -12%[15.4 µM] | 8.1 | -9%
O=C(COc1ccc(Cl)cc1Cl)OCC(=O)N1CCCc2ccccc21 | 1.0 | 6 | 1.7% | -31%[inhibitor] | -4.9 | 4%
Cc1ccc(C#CC[N+]2(C)CCCCC2)cc1 | -0.3 | 1 | . | -11%[15.4 µM] | 1.4 | 5%
COC(=O)c1ccc(CNC(=O)COC(=O)c2cc(Cl)ccc2O)cc1 | -1.9 | 3 | 3.9% | 6% | . | -2%
OCCC1CN(Cc2cccn2-c2ccccn2)CCN1C1CCCC1 (configuration not stated) | -0.2 | 0 | . | ? | -0.4 | 16%
CCOC(=O)NC(=O)c1cn(N(C)c2ncc(C(F)(F)F)cc2Cl)c(=O)[nH]c1=O | 0.1 | -4 | . | -9%[15.4 µM] | -3.0 | -1%
Cc1ccc(S(=O)(=O)Nc2c(O)c3ccccc3oc2=O)cc1C | 0.3 | 4 | . | 26% | 3.1 | -7%
COc1cccc(-c2nc3c(c(SCC(=O)Nc4cc(C)ccc4C)n2)Cc2c(CO)cnc(C)c2O3)c1 | -0.2 | -9 | 0.1% | . | . | .
Cc1c(Cl)ccc2c1NC(=O)[C@]21N[C@@H](Cc2ccccc2)[C@H]2C(=O)N(c3ccc(F)cc3)C(=O)[C@H]21 | 6.1 | -7 | -0.9% | -33% | 5.0 | -3%
Cc1cccc(N2C(=O)CS(=O)(=O)C23C(=O)N(Cc2c(F)cccc2Cl)c2ccccc23)c1 (configuration not stated) | 1.3 | 12 | 0.9% | . | . | .
CCOc1cc(C=NN=C2c3ccccc3-c3ccccc32)ccc1O | 1.5 | 2 | 1.2% | -44%[inhibitor] | . | -7%
CC(O)c1nc(C(C)O)n(CC(=O)c2ccccc2)n1 (configuration not stated) | -0.6 | 12 | 0.1% | . | . | 9%
COc1ccc(C(=O)Nc2ccc(N3CCCCC3)cc2)cc1Br | -0.2 | 11 | -5.6% | 14% | 3.2 | 3%
COc1ccc(C)cc1S(=O)(=O)N1CCOCC1 | 0.4 | -16 | . | 8%[15.4 µM] | 0.7 | 11%
Nc1cc(-c2cccc([N+](=O)[O-])c2)[nH]n1 | 2.0 | -10 | -1.2% | -41%[inhibitor] | 6.9 | 1%
Cn1cc(Cl)c(C(=O)NC2CCCC2)n1 | 0.0 | 33 | 0.8% | ? | 6.4 | 4%
CC(C)CCN1C(Nc2ccccc2)=NC[C@@H]1CC(C)C | -0.6 | 7 | -0.1% | -58%[inhibitor] | 4.9 | 8%
O=C(O)c1c[nH]c(=S)n1-c1ccc(F)cc1 | 1.1 | 4 | -1.9% | -38%[inhibitor] | -0.1 | 16%
Nn1c(COc2ccccc2)nnc1SCC(=O)O | 0.8 | 3 | 3.1% | -21% | 2.0 | 6%
COc1ccc(C(=O)NC2(C(F)(F)F)N=C3SCCN3C2=O)cc1 (configuration not stated) | -0.3 | 39 | 1.4% | -2% | -1.9 | 8%
Cc1cccc(N2CCN(C(=O)C3CCN(S(=O)(=O)N4CCOCC4)CC3)CC2)c1C | 0.6 | -10 | 0.1% | -67%[inhibitor] | -2.7 | 10%
O=C(c1ccc(=O)oc1)N1CCN(c2ccc(F)cc2)CC1 | -0.3 | 1 | 32µM* | -20% | ? | 8%
CCOc1ccc(N(C(=O)CNS(=O)(=O)c2ccccc2)C(CC)C(=O)NCc2ccco2)cc1 (configuration not stated) | -1.2 | -4 | . | -2%[15.4 µM] | 5.2 | -9%
COc1ccc(N(CC(=O)NCc2ccco2)S(=O)(=O)c2ccc(C)cc2)cc1OC | -0.6 | -13 | -3.6% | 19%[15.4 µM] | 1.5 | -7%
N#Cc1ccc(/C=N/NC(=O)c2cc(-c3cccs3)nc3ccccc23)cc1 | -0.3 | -6 | ? | 23% | 9.1 | -1%
COc1cc(OC)cc(C(=O)NC(=S)Nc2ccc(Cl)c(C(=O)O)c2)c1 | -0.6 | 9 | 2.9% | 1% | 1.2 | 2%
CCOC(=O)C1=C(COC(=O)CSc2ccc(Br)cc2)NC(=O)NC1C (configuration not stated) | 0.9 | -3 | 0.4% | -8% | . | 1%
Cc1cc(NC(=O)CSc2nc(-c3cccnc3)ccc2C#N)no1 | -0.4 | -7 | ? | 8% | -0.6 | 11%
CCOC(=O)Nc1ccc2c(c1)C(=NO)c1ccccc1-2 | 1.6 | -5 | 1.0% | 32% | . | -3%
CC(C)c1ccc(NC(=O)CNC(=O)Cn2ccc3ccccc3c2=O)cc1 | 0.5&0.3 | -14&-2 | -7.9% | 1% | -5.2 | 4%
O=C(NC1CCCCC1)c1cccc(OCc2ccccc2)c1 | 4.6 | -14 | -3.1% | 25% | -1.3 | -11%
COc1ccc(C)cc1NC(=O)CCCNC(=O)Cn1cnc2sc(C)c(C)c2c1=O | -1.5 | -4 | 0.6% | -4%[15.4 µM] | -5.3 | 2%
Cc1n[nH]c(=O)nc1N1CCc2ccccc2C1 | -0.6 | -7 | -1.3% | -22% | -2.5 | 2%
CC1=NN(/C(=N\c2nnc(C)s2)Nc2ccc(C)cc2)[C@H](c2ccc(C)cc2)S1 | 1.0 | -2 | 2.1% | 26% | -1.9 | ?
COc1ccc2nc(COC(=O)c3ccco3)c(C(C)=O)[n+]([O-])c2c1 | 0.2 | -6 | 3.2% | -2% | -0.2 | -2%
CCC1Oc2nc(SC)nnc2-c2ccccc2N1C(=O)c1ccccc1 (configuration not stated) | -0.5 | -10 | 0.9% | -35%[inhibitor] | 1.0 | -15%
CCOc1cccc(C(=O)NC(=S)Nc2ccc3c(c2)OCCO3)c1 | -0.9 | 2 | . | -19%[15.4 µM] | 2.4 | -8%
CN1CCN(C(=O)CC23CC4CC(CC(C4)C2)C3)CC1 | 0.6 | 4 | -0.2% | 15% | 1.2 | 18%
CC(C)C[C@H](NC(=O)C1CC(=O)N(c2ccc3c(c2)OCCO3)C1)C(=O)NC1CCCC1 (some centres not stated) | 3.2 | -21 | -1.7% | ? | 1.0 | ?
COc1ccc(CNS(=O)(=O)c2csc(C(N)=O)c2)cc1OC | -0.4&-1.0 | 12&-15 | -2.6%&1.0% | 23% | . | 10%
COc1ccc(Cl)cc1S(=O)(=O)NCc1cccnc1 | -0.4 | 2 | 0.7% | ? | 5.2 | -9%
O=C(Nc1nnc(S(=O)(=O)N2CCOCC2)s1)c1ccccc1 | 0.1 | 5 | -1.5% | -4% | 3.4 | -9%
COc1ccc(C(=O)NCc2nc(C)c(C)s2)cc1OC1CCN(C(C)C)CC1 | 0.2 | -2 | -3.1% | -39%[inhibitor] | . | 16%
Cc1ccc(CN2CCC(C(=O)Nc3cccc(-c4cccc(F)c4)c3)CC2)o1 | -0.5 | -2 | -1.7% | 2% | . | 0%
Cc1ccccc1OCC(=O)N(Cc1ccco1)c1c(N)n(Cc2ccccc2)c(=O)[nH]c1=O | -0.5 | -7 | 1.4% | -7% | . | 0%
CCOC(=O)c1ccc(NC(=O)C2CCN(C(=O)c3ccc(OC)c(OC)c3)CC2)cc1 | -0.6 | 2 | -3.2% | -27% | 0.6 | -11%
Cc1ccc(S(=O)(=O)CCC(=O)OCC(=O)Nc2cc(S(=O)(=O)N3CCOCC3)ccc2Cl)cc1 | 2.4 | -9 | -1.0% | 4% | . | -15%
COc1cccc(CNC(=O)c2nnn(CC(=O)Nc3c(C)cccc3C)c2N)c1 | -0.3 | -8 | -0.5% | -25% | -0.1 | 14%
COc1cc(SC)ccc1C(=O)N(Cc1ccccc1)c1ccccn1 | 1.0 | 3 | . | -4%[15.4 µM] | 0.6 | -8%
CCC1=C([N+](=O)[O-])C(c2ccc3c(c2)OCO3)NC(=O)N1 (configuration not stated) | 0.4 | 28 | -0.8% | 2%[15.4 µM] | -3.6 | -9%
CCOC(=O)c1c(C)c(C(=O)Nc2cc(OC)ccc2OC)c(C)n1CC | 2.4 | 17 | -3.7% | -6% | 5.4 | -2%
Cc1nc(C)c(-c2ccc(SCC(=O)Nc3cccc(Cl)c3)nn2)s1 | 0.8 | 15 | -4.9% | -4% | . | ?
Cc1ccc(-c2c(C)n([O-])c3c([n+]2=O)CCC3)cc1 | 0.3 | -14 | -2.7% | -46%[inhibitor] | 4.0 | 14%
